# Compound activity: PubChem BioAssay, several laboratories
# Beta cell apopt: blocks beta cell apoptosis | INS-1E cytokine-induced death, ATP luminescence, 48 h; percent of positive-control rescue, neutral wells zero | protection from apoptosis, % (no concentration beside the values) | 300,000 compounds, 0.8% hits | AID 435005;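 active means all replicates at 75% or more, or half of them and the mean; inconclusive means half reach 75% but not the mean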;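 further: 0% = cytokine-treated negative control wells and 100% = positive control rescue; higher means more ATP so stronger rescue from cytokine killing; wells of about 40 µL received 100 nL stock; the first replicate is given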
# ALR inh: human ALR oxidase inhibition via reduced H2O2; P55789; purified ALR, DTT oxidation, H2O2 HRP-luminol luminescence; inhibition, % (test concentration not listed); 290,000 compounds, 3.8% hits; AID 485317;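 active means mean and each replicate at 75% or more; inconclusive means only one of the two met; inactive means neither met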;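 further: stock transfer was 7.5 nL into about 7.5 µL; 0% = neutral wells and 100% = wells with inactivated enzyme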
# Target sequence (P55789 whole entry, looked up): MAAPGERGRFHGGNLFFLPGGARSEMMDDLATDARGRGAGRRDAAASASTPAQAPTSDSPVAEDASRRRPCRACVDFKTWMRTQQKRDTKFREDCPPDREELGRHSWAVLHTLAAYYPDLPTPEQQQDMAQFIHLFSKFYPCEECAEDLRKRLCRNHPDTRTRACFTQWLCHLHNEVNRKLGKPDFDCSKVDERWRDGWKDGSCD
# Calb FLC: affects C. albicans growth with fluconazole. C. albicans CaCi-2 (fluconazole-resistant clinical isolate) + fluconazole, Alamar Blue growth, 48 h. growth inhibition, % (concentration not given with the values). 300,000 compounds, 0.57% hits. AID 1979;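 active means most replicates above 75%; inconclusive means exactly half above 75%; inactive means most below 75%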;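 further: all wells also contain fluconazole at 8 µg/ml as a sub-toxic cotreatment; 0% = median of DMSO wells and 100% = median of geldanamycin control wells; wells of about 8 µL received 7.5 nL stock; the first replicate is given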
# LANA-H2A inh: blocks KSHV LANA binding to histone H2A/H2B | Q9QR71 | cell-free LANA-H2A/H2B peptide, fluorescence polarization | inhibition, % (no concentration beside the values) | 320,000 compounds, 0.6% hits; in the data active means inhibition mostly above about 10%, no sharp cut-off; inactive means mostly below about 6.7%;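 further: stock transfer was 7.5 nL into about 10 µL; 0% = median of vehicle wells and 100% = median of positive control wells; one replicate is shown; the record names a cut of 25% in any replicate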
# T cruzi repl: blocks replication of Trypanosoma cruzi. AID 1885. 300,000 compounds, 1.4% hits. T. cruzi beta-gal in NIH3T3, luminescence, 90 h. inhibition, % (concentration not given with the values);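 active means mean inhibition across valid replicates above about 55%, limit read from the data; inconclusive means mean below that limit but half or more replicates reach it; inactive means mean below it, under half of replicates reach it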;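 further: signal also drops with host cell toxicity which is not excluded here; 0% = plate median of DMSO wells and 100% = zero luminescence signal; higher percent means less beta-gal luminescence so fewer parasites; stock transfer was 50 nL into about 50 µL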
# Beta2AR agonist: activates human beta-2 adrenergic receptor causing internalization. P07550. Am2.2-beta2AR cells, FAP receptor internalization, flow cytometry; reference of the scale not given here. response, % (no concentration beside the values). 340,000 compounds, 0.43% hits;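 active means response above a set limit, near 3 SD of response in nonfluorescent compounds, cut at about 42% in these data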;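 further: stock transfer was 100 nL into about 11 µL; a reference agonist was the positive control; negative values mostly stem from fluorescent compounds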
# Target sequence (P07550 whole entry, looked up): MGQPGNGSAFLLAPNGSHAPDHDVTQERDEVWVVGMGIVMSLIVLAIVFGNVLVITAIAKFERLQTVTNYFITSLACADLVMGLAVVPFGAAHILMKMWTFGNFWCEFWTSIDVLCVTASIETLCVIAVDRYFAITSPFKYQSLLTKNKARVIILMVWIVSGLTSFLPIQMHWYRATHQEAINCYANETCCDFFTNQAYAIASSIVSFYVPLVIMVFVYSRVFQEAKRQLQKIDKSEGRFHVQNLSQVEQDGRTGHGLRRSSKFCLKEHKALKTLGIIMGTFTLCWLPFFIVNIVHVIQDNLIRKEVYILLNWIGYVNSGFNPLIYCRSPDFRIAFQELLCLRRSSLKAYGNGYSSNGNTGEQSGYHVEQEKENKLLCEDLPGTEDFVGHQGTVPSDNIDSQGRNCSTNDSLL
# rRNA inh HTS: selective bacterial rRNA inhibition in E. coli; 350,000 compounds, 1.6% hits; GFP signal change (wild-type ribosome), % (test concentration not listed); E. coli WT GFP vs humanized-ribosome RFP mutants, fluorescence, 24 h; stronger effect = lower value; DMSO median 0, no signal -100;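 active means significant combined selectivity score with lowered wild-type GFP, culture density cut under 30%, mutant RFP and density less affected; inactive means any of these conditions unmet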; further: one replicate is shown; some compounds called inactive have numbers as strong as hits
# A1 inh: inhibitors of the anti-apoptotic protein A1, read as caspase activation; MEF A1-2A-BIM cells, Caspase-Glo 3/7 luminescence, 3 h; percent of clofoctol response, vehicle zero; caspase activation, % (concentration not given with the values); 330,000 compounds, 0.066% hits; AID 2462;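 active means over half of replicate activation scores above 10%, or exactly half above 10 with the replicate mean above 10; inconclusive means replicate mean below 10 yet half the replicates above 10; inactive means over half of replicates below 10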;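 further: wells of about 30 µL received 50 nL stock; many hits fall short of the cut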
# rRNA inh HTS OD600: further read-out of rRNA inh HTS, marked with its call; OD600 change, %; measured here: OD600 growth;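 optical density of the mix in the first replicate; 0 = DMSO median and -100 = no signal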
# rRNA inh HTS RFP: further read-out of rRNA inh HTS, marked with its call; RFP signal change, %; measured here: RFP humanized mutant strains;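 first replicate; 0 = DMSO median and -100 = no signal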
# Starred values were filed as active, the others as inactive; ? = inconclusive; · = not tested or not shown. An excerpt (hit frequency here may not be typical).
SMILES,Beta cell apopt,ALR inh,Calb FLC,LANA-H2A inh,T cruzi repl,Beta2AR agonist,rRNA inh HTS,rRNA inh HTS OD600,rRNA inh HTS RFP,A1 inh
O=c1cc(C(F)(F)F)nc(-c2ccccc2)[nH]1,-2,3,59,3.3,6,1,·,·,·,0.3
CN1CCN(C(=O)C2(NC(=O)Nc3ccccc3Cl)CCCCC2)CC1,-4,-5,-1,-0.8,-7,2,·,·,·,0.1
CC(C)COc1ccc(S(=O)(=O)n2cc(F)c(=O)[nH]c2=O)cc1,3,5,3,4.0,-4,-1,-11,-3,-0.4,-0.6
CC1(C)N=C(C(=O)c2ccccc2)N(O)C1(C)O (centres undefined),-3,0,-8,0.9,-10,-1,·,·,·,0.5
CN(C)/C=C1\C=C2C(=O)c3ccccc3N2C1=O,-6,-10,4,150*,-7,·,10,12,2.6,-0.9
CCOC(=O)c1ccc(NC(=O)CCc2ccc(CC)o2)cc1,-2,13,19,-2.0,-10,-3,·,·,·,-0.2
CCOC(=O)CSc1nnc(-c2ccoc2C)n1-c1ccc(C)cc1,4,·,30,0.6,8,9,·,·,·,1.2
O=C1CN(O)C=C2N=c3ccccc3=C2N1c1ccc([N+](=O)[O-])cc1,-4,5,2,-3.2,12,-1,12,7,-1.6,-0.1
COC(=O)C(NC(=O)c1ccc(Cl)cc1)(Nc1nc(C)cs1)C(F)(F)F (centres undefined),-8,1,-4,3.3,-12,0,·,·,·,-0.2
COc1ccc2oc(C(=O)NC(C)(C)C)c(C)c2c1,-1,-5,-6,-2.8,10,-6,12,7,2.3,1.1
Cn1nnnc1SCC(=O)NC(=O)Cc1ccccc1,1,-3,-3,2.0,1,-6,·,·,·,0.0
COc1cccc(-c2ccc(NC(=O)C3CCCN(Cc4cnc(C)s4)C3)cc2)c1 (centres undefined),-3,-3,5,-3.8,36,3,-1,-6,1.2,1.7
CCN1CCN(c2ncnc3c2sc(=S)n3-c2ccccc2)CC1,5,-3,8,-0.8,28,6,3,4,-0.3,-0.4
O=C(NCCN1C(=O)CCC1=O)c1ccncc1,4,·,-13,-3.6,·,-1,·,·,·,-0.1
COc1ccc(C(=O)NCC(=O)N2CCCCC2)cc1OC,-3,-6,-20,-5.6,-10,-2,12,9,1.2,0.8
O=C(CCc1ccccc1)Oc1ccccc1[N+](=O)[O-],-4,54,22,3.6,-4,13,6,14,-2.8,-0.2
Cc1ccc(NC(=O)c2cccnc2)cc1S(=O)(=O)N1CCOCC1,-1,-4,-6,-0.8,8,-8,4,5,-2.9,-1.0
Cn1c2ccccc2c2nnc(SCc3ccc4nonc4c3)nc21,0,-6,-3,1.0,-8,9,7,7,-2.7,-0.5
CCc1ccc(OCC(=O)NCCOc2ccccc2)cc1,-3,-19,1,-4.8,1,7,·,·,·,0.3
N#Cc1c(N)nc(SCC(=O)NC2CCCCC2)c(C#N)c1-c1ccc(Cl)cc1,1,-7,2,2.5,-6,-1,·,·,·,-0.3
Cc1cc(C)c(NS(=O)(=O)c2ccc(Cl)c(C(=O)O)c2)c(C)c1,3,-7,-8,3.0,-19,-4,7,10,3.2,0.7
COc1ccccc1C1=NOC(C(=O)N2CCN(C(=O)c3ccco3)CC2)C1 (centres undefined),-6,-6,-4,-2.2,-2,12,2,3,-1.1,-0.3
COc1ccc(-c2nn(-c3ccccc3)cc2C(=O)N(C)C)cc1,-2,-5,1,3.4,0,2,1,-8,-4.1,0.2
Cc1cc(C)c(S(=O)(=O)N/N=C/c2ccc([N+](=O)[O-])o2)c(C)c1,-6,-23,7,-0.2,25,-1,1,1,1.0,-0.1
O=c1[nH]c(C(F)(F)F)nc2ccc3ccccc3c12,3,-2,-7,0.6,-15,-4,4,-13,0.1,1.3
CC(=O)Nc1ccc(S(=O)(=O)Nc2nc3ccccc3nc2Nc2ccc(S(N)(=O)=O)cc2)cc1,-10,-6,4,6.1,-42,-2,·,·,·,-0.6
COc1ccc2nc(Cl)c(C3CC(c4ccco4)=NN3C(=O)CCCC(=O)O)cc2c1 (centres undefined),-1,-3,15,-2.0,-12,-7,8,-3,-1.7,1.6
COc1ccc(NS(=O)(=O)c2c(C)[nH]c(=O)[nH]c2=O)c(OC)c1,1,-26,7,-1.8,-1,-2,·,·,·,0.8
Cc1ccc(NC=C(S(=O)(=O)c2ccccc2)S(=O)(=O)c2ccccc2)c(C)c1,-1,-1,-14,0.9,26,0,·,·,·,1.3
Cc1cccc(N/N=C/c2ccccc2O)c1,-1,8,-38,7.0,8,-1,15,12,5.2,-0.6
CC12CC(c3ccccc3O1)N(C(=O)c1ccco1)C(=S)N2c1ccccc1 (centres undefined),-1,-6,6,-3.2,6,9,·,·,·,-0.6
O=C(Cn1cnc2ccccc2c1=O)NCCCN1CCCC1=O,-5,-4,·,-12,·,-2,16,13,3.9,1.0
COc1ccc2[nH]c3c(=O)n(Cc4ccc(C(=O)NCC5CCCO5)cc4)c(=S)[nH]c3c2c1 (centres undefined),1,·,2,3.8,3,10,9,15,0.9,-0.8
O=C(N/N=C/c1cccc(O)c1)NC1CCCCC1,·,69,-7,5.6,-4,3,-25*,-14*,0.3*,0.3
Cc1ccc2nc(Cn3cc(C(F)(F)F)cc(Cl)c3=O)cc(=O)n2c1,6,-10,-9,-2.6,-10,5,20,16,-0.9,1.4
Cc1cc(C(=O)COC(=O)c2ccccc2Br)c(C)n1CC1CCCO1 (centres undefined),9,·,-3,-0.1,-3,1,-22,-21,-4.1,-7.5
CC(C)(C)NC(=O)NC(=O)CSc1nnc(-c2ccccc2F)n1N,-1,1,-9,2.7,-10,-2,·,·,·,0.4
COc1ccc(NS(=O)(=O)c2ccc3oc(Nc4ccc5c(c4)OCCO5)nc3c2)cc1,0,-15,1,3.2,19,-2,·,·,·,-0.8
CC(C)CC1NC(=O)N(CC(=O)N2c3ccccc3NC(=O)C2(C)C)C1=O (centres undefined),1,·,-8,7.0,-11,0,11,6,1.0,-0.3
Cc1ccc(-c2cc(C(F)(F)F)n3ncc(C(=O)NCc4ccco4)c3n2)cc1,·,50,-1,1.2,11,-8,·,·,·,0.6
O=C(C1CC(=O)N(C2CCCC2)C1)N1CCN(c2ccc(F)cc2)CC1 (centres undefined),·,·,1,·,4,4,-4,-6,0.0,·
O=C(O)CC(CC(=O)NCC(O)c1ccccc1)c1ccccc1 (centres undefined),·,·,-10,-1.7,1,-6,8,10,-2.0,0.6
Cc1[nH]c2ccccc2c1C(c1ccncc1)N1CCCCC1 (centres undefined),-10,42,1,-3.1,28,1,12,9,11,-0.7
C=CC[C@@H](CC(=O)N[C@H](CO)Cc1ccccc1)C(=O)N[C@@H](COC(=O)[C@H](CC=C)CC(=O)OC(C)(C)C)Cc1ccccc1,3,-1,·,-0.3,·,-13,5,6,11,-0.5
Cc1cc(C)nc(SCC(=O)N/N=C/c2cc(C)n(-c3ccccc3C)c2C)n1,-1,1,1,-0.2,5,-8,·,·,·,0.7
COc1ccc(S(=O)(=O)N2CCN(C(=O)CCc3c[nH]c4ccccc34)CC2)cc1,-10,1,·,-2.4,·,2,-2,0,0.0,-0.4
Fc1cccc(Cl)c1-c1nnc2ccc3ccccc3n12,101*,98*,-30,-2.1,32,1,-6,-12,-3.7,-0.6
CC(C)C(=O)N1CCN(c2ccccc2NC(=O)c2ccco2)CC1,·,-9,10,0.2,13,-10,3,4,0.2,0.9
O=C(NC1CCCCCCC1)C1CCCN(S(=O)(=O)c2cnc[nH]2)C1 (centres undefined),-10,95*,-10,5.5,-11,-13,-1,1,-2.5,0.4
CC1CCN(CC(=O)Nc2nccs2)CC1,0,-7,11,-2.2,-6,5,13,9,9.2,2.0

# The results go on.
SMILES,Beta cell apopt,ALR inh,Calb FLC,LANA-H2A inh,T cruzi repl,Beta2AR agonist,rRNA inh HTS,rRNA inh HTS OD600,rRNA inh HTS RFP,A1 inh
O=C(c1cc(S(=O)(=O)N2CCOCC2)ccc1Cl)N1CCC(Cc2ccccc2)CC1,5,-5,·,-6.7,8,8,-24,-47,4.2,-0.9
COc1ccc(S(=O)(=O)N2CCOC2CNC(=O)C(=O)NCc2ccccn2)cc1 (centres undefined),-7,·,17,1.7,-2,3,8,6,-2.4,0.1
CCOC(=O)[C@@H]1[C@H]2COc3cc(OC)ccc3[C@@H]2N2C(=O)N(c3cccc(F)c3)C(=O)[C@@]12C,-4,-13,-2,1.2,-8,2,1,-5,-11,-0.6
N#CCCN1C(=O)C2(OCCO2)c2ccccc21,·,·,6,-0.7,-9,0,9,1,-0.5,0.5
COc1ccc(-c2cc(C(=O)N3CCCC3)c3ccccc3n2)cc1,-5,·,-3,1.6,6,9,-14,-8,-4.4,-1.2
CCCNC(=O)c1cnc(-c2ccccc2)nc1-c1ccccc1,-2,·,-4,-0.1,12,-6,12,18,-0.5,0.6
CCOc1ccc(CCNC(=O)C2CCN(c3nnc(-n4cccc4)s3)CC2)cc1OCC,-1,-3,-7,3.9,5,-5,·,·,·,-0.2
CN(CC(=O)NCC(c1ccco1)N1CCCCC1)S(=O)(=O)c1ccc(Cl)cc1 (centres undefined),-3,-1,-1,-3.7,-1,-7,14,5,-0.7,0.5
Cn1c(=O)oc2cc(S(=O)(=O)NCc3cccnc3)ccc21,0,·,-3,-13,?,-81,7,8,-6.9,-1.4
Clc1ccc(Cc2ccc(SCc3ccccc3)nn2)c(Cl)c1,1,-11,-18,2.1,21,-6,-1,-3,-2.8,1.5
COC(=O)C1CCN(C(=O)C2CCCCC2)CC1,-6,·,28,-1.2,2,7,·,·,·,-0.8
CCOC(=O)C1=NNC(C(=O)c2ccccc2)C1c1ccc(Cl)cc1 (centres undefined),-1,-1,4,-1.1,·,11,·,·,·,-0.1
CCOc1ccc(C(=O)NCC(=O)N2CCCCCCC2)cc1,-6,-8,·,6.4,·,2,-3,7,-1.2,-0.1
CC(C)(C)NC(=O)NC(=O)CN1CCN(S(=O)(=O)/C=C/c2ccccc2)CC1,-9,·,-2,3.4,3,-9,-4,6,-2.5,0.0
COc1ccc(CNC(=O)CS(=O)(=O)Cc2nc(-c3ccc(OC)cc3)oc2C)cc1,-3,-8,1,-8.4,17,-9,4,1,1.2,0.5
Cc1ccc(S(=O)(=O)c2c(N)n(CCCN(C)C)c3nc4ccccc4nc23)cc1,·,-13,13,1.2,21,24,·,·,·,-0.4
COc1cc(C(=O)Nc2nc3ccc(C)cc3s2)ccc1OCc1c(C)noc1C,13,-17,-8,-0.7,21,-6,·,·,·,0.4
CSc1ncccc1C(=O)OCC(=O)Nc1nc(C)c(Cl)cc1Cl,-4,-3,·,-1.7,·,0,4,12,-4.2,-0.2
Cc1cc(=O)n2c3ccccc3n(C)c2n1,·,-5,1,-0.3,-6,-6,-7,-9,-1.3,0.5
Cc1ccccc1NC(NC(=O)c1cccs1)C(Cl)(Cl)Cl (centres undefined),-2,-5,10,-2.0,-13,3,·,·,·,-1.5
